High-throughput results from PubChem BioAssay.
VDR inh: Inhibitors of the vitamin D receptor (VDR): qHTS; VDR-SRC2-3 peptide fluorescence polarization, 2 h; AID 504847, 2011; Vitamin D3 receptor (Homo sapiens), P11473; Potency, µM, for inactives: max response, negative = inhibition, actives largely listed as inhibitors; hit rate 0.93% among 400,000; active = well fitted inhibition curve with a large enough effect; inconclusive = small, poorly fitted or top-dose-only effect, or another doubt; inactive = no such curve, though single readings can be large or run the other way; also: series mostly up to about 120 µM
Target sequence (P11473 whole entry, looked up): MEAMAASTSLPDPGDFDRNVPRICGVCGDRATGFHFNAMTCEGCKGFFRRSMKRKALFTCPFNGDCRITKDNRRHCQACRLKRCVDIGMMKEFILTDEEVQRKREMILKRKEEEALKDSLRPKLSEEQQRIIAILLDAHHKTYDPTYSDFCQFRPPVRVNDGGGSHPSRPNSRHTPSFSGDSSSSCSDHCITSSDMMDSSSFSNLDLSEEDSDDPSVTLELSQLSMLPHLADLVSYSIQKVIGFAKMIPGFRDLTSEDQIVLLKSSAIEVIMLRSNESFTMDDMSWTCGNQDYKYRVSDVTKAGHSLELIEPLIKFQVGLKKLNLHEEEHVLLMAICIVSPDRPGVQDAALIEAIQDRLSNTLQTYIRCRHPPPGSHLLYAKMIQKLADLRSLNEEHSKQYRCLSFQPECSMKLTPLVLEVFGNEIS
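Inhibition of the VDR/SRC2-3 peptide interaction is quantified by fluorescence polarization. Compounds (23 nl, pintool) incubate with the reagents for 2 hours at ambient room temperature.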
* marks the source's active call; other numbers are inactive results; ? = inconclusive; & = joins results of further samples; [ ] = another dose, or the depositor's remark. % is scaled to controls: 0 for no effect and ±100 for the full control effect; potency is read from the fitted curve at half-maximal effect. An excerpt; rates above refer to the full screens.

SMILES	VDR inh
Cc1ccc(N2CCN(C(=O)c3ccccc3)CC2)c(C)c1	10%
Cc1ccc(-c2noc(CCCC(=O)N3CCOCC3)n2)cc1	-3%
CCOc1ccc(C(=S)N2CCOCC2)cc1OCC	-24%
O=C(CCSc1nc(-c2ccco2)cc(C(F)(F)F)n1)Nc1cccc(O)c1	-1%
CCOc1ccc(-c2nnc(SCC(=O)Nc3cc(C)on3)o2)cc1	2%
Cc1noc(C)c1NC(=O)N(C)C[C@H]1Oc2ccc(NC(=O)Nc3ccc(C(F)(F)F)cc3)cc2C(=O)N([C@H](C)CO)C[C@@H]1C	-16%
CCOC(=O)C1CCN(C(=O)COc2ccc(Br)cc2)CC1	6%
CCCCN(CC)CCNC(=O)c1cc2c(-c3ccc(Cl)cc3)nn(C)c2s1	-1%&-6%
N#C/C(=C/c1ccccc1[N+](=O)[O-])c1nc(C2CC2)cs1	-1%
CC(Oc1cc(-c2ccccc2)cc2ccccc12)C(=O)N1CCOCC1 (centres undefined)	8%
CCN(C(=O)CSc1nc2ccccc2c2nc(CCn3c(C)nc4ccccc43)nn12)c1cccc(C)c1	11%
CCCOCCOC(=O)c1[nH]c2c(c1C)C(=O)CC(c1cc(OC)ccc1OC)C2 (centres undefined)	6%
Cc1ccc(S(=O)(=O)N2CCN(C(C)C(=O)N3CCCc4ccccc43)CC2)cc1 (centres undefined)	-10%
CCCCN(C(=O)CSCC(=O)Nc1ccc(C)cc1)c1c(N)n(Cc2ccccc2)c(=O)[nH]c1=O	-1%
Cc1ccc(C)c(N2CCN(C(=O)c3cn(CC(C)C)c(=O)c4c3c3ccccc3n4C)CC2)c1	0%
COc1ccccc1CNC(=O)COn1nnc2ccc(S(=O)(=O)N3CCOCC3)cc21	-19%
O=C(Cc1ccc(NC(=O)N2CCCCc3ccccc32)cc1)Nc1ccccc1Br	1%
Cc1ccc(C2/C=C\CC(NC(=O)OCC3c4ccccc4-c4ccccc43)CC(=O)N2Cc2ccccc2)cc1 (centres undefined)	-10%
CC1(C)Oc2ccc(C#N)cc2[C@@H](OC2=CC(=O)CC2)[C@@H]1O	9%&0%
O=C(OCc1nc2ccsc2c(=O)[nH]1)c1ccc(Cl)s1	-7%
COc1ccc(-n2c(-c3ccccc3F)nc3c(cnn3-c3ccc(C)cc3)c2=O)cc1	-3%
Cc1cccc(N2CCN(C(=O)Cc3cn(C)c4ccccc34)CC2)c1C	20µM*
O=[N+]([O-])c1ccc(N2CCN(c3ccc(O)cc3)CC2)c(Cl)c1	5%
O=C(Nc1ccc2c(c1)OCO2)N1CCN(C(=O)C2CCCO2)CC1 (centres undefined)	18%
Cn1c(-c2ccc(F)cc2)cnc1NCc1cccc(F)c1	-17%
CCCc1cc(=O)n2nc(N3CCC(C(=O)N4CCN(c5ccc(OC)cc5)CC4)CC3)sc2n1	-12%
COc1ccc(C(=O)N/N=C(\C)c2ccc(NC(=O)Cc3ccccc3)cc2)c(OC)c1	0%
COc1cc(C(=O)N2CCC(O)(c3ccccc3)CC2)cc(OC)c1OC	8%
COc1ccccc1-c1nnc2sc(-c3cnccn3)nn12	13%
CN1CC(=O)N=C1N	-7%&-9%&12%
COc1ccc(O)c(CN2CCC(n3nccc3NC(=O)C3CCCC3)CC2)c1	-2%
Cc1ccc(C2=NC(=O)/C(=C/c3cc(O)c(O)c(Br)c3)S2)cc1	?
COc1ccc(NC(=O)c2sc3nc4c(c(-c5ccc(OC)cc5)c3c2N)C(=O)CC(C)(C)C4)cc1	-7%
Cc1ccc(S(=O)(=O)NCc2c(-c3ccccc3)c3cc(Cl)ccc3[nH]c2=O)cc1	-11%
Cc1ccc(/C=C/C(=O)c2c(C)cc(C)[nH]c2=O)cc1	-6%
O=C(O)C(Cc1ccc(Cl)cc1)Sc1nc2ccccc2[nH]1 (centres undefined)	-5%
COc1ccc(OCCCCn2c(-c3ccc(Cl)cc3)nc3ccccc3c2=O)cc1	-14%
CC(C)CCN(C(=O)Nc1ccc(Cl)cc1)C1CCN(C(C)C)CC1	-20%
CCCCCNC(=O)c1ccc2c(c1)ncn2-c1ccc(OC)cc1	-5%
COc1ccc2oc(-c3ccc(C)c(NC(=O)c4sc5ccccc5c4Cl)c3)nc2c1	-14%
CCCCCN(C(=O)CCC(=O)OCCOc1ccccc1Cl)c1c(N)n(CCCC)c(=O)[nH]c1=O	-1%
N#Cc1cccc(-c2nc(Nc3ccncc3)c3ccccc3n2)c1	120%[activator]
CCCCC12CN3CC(C)(CN(C1)C3c1ccc([N+](=O)[O-])o1)C2=O (centres undefined)	-4%
Cc1ccnc2nc(C(=O)OCC(=O)NC3CCC(C)CC3)nn12 (centres undefined)	-17%
Cc1ccc(NC(=S)N2CCN(S(C)(=O)=O)CC2)cc1C	18%

A few values from the results shown:
Cc1ccnc2nc(C(=O)OCC(=O)NC3CCC(C)CC3)nn12 (centres undefined) – VDR inh: -17%
CCCCCN(C(=O)CCC(=O)OCCOc1ccccc1Cl)c1c(N)n(CCCC)c(=O)[nH]c1=O – VDR inh: -1%

Back to the main list; the 6 compounds before the break are reprinted first.
SMILES	VDR inh
COc1ccc2oc(-c3ccc(C)c(NC(=O)c4sc5ccccc5c4Cl)c3)nc2c1	-14%
CCCCCN(C(=O)CCC(=O)OCCOc1ccccc1Cl)c1c(N)n(CCCC)c(=O)[nH]c1=O	-1%
N#Cc1cccc(-c2nc(Nc3ccncc3)c3ccccc3n2)c1	120%[activator]
CCCCC12CN3CC(C)(CN(C1)C3c1ccc([N+](=O)[O-])o1)C2=O (centres undefined)	-4%
Cc1ccnc2nc(C(=O)OCC(=O)NC3CCC(C)CC3)nn12 (centres undefined)	-17%
Cc1ccc(NC(=S)N2CCN(S(C)(=O)=O)CC2)cc1C	18%
COc1cccc(C2=NOC(C(=O)N3CCN(Cc4ccccc4)CC3)C2)c1OC (centres undefined)	-4%
COc1ccc(-c2csc(Nc3cccc(C)n3)n2)cc1	-1%
CCc1nonc1NC(=O)COc1cc(C)c(Cl)c(C)c1	-19%
CCc1cccc(NC(=O)C(Cc2ccccc2)NS(=O)(=O)c2ccc3c(c2)oc(=O)n3C)c1 (centres undefined)	7%
Nc1ccc(S(=O)(=O)Nc2nc3ccccc3o2)cc1	4%
CCc1ccc(-c2nc(CN3CCC(C(=O)N4CCN(c5ccccc5)CC4)CC3)c(C)o2)cc1	-15%
O=C(NCc1ccc2c(c1)OCO2)C(=O)NCC1OCCCN1S(=O)(=O)c1cc(F)ccc1F (centres undefined)	-8%
COC(=O)N1CCC2(CCCN(c3cccc(-c4ccccc4)c3)C2)CC1	?
CS(=O)CCC(NS(=O)(=O)c1ccccc1)C(=O)O (centres undefined)	9%
Cn1c(CSCc2ccccc2)n[nH]c1=S	-14%
CN(C)CCCC(C)(O)C(Cc1ccccc1)c1ccccc1 (centres undefined)	11%
COc1ccccc1N(CC(=O)NCC1CCCO1)C(=O)CNS(=O)(=O)c1ccccc1 (centres undefined)	2%
CN(Cc1ccc(CNC[C@H]2O[C@@H](n3cnc4c(N)ncnc43)[C@H](O)[C@@H]2O)o1)S(C)(=O)=O	-16%
O=C(Nc1ccccc1)c1ccc(Br)o1	-4%&-5%
Cc1ccc(CN2CCSc3ccc(C(=O)NCC4CCCO4)cc32)cc1 (centres undefined)	7%

Gathered by group: the entries above with a CF3 group.
SMILES	VDR inh
O=C(CCSc1nc(-c2ccco2)cc(C(F)(F)F)n1)Nc1cccc(O)c1	-1%
Cc1noc(C)c1NC(=O)N(C)C[C@H]1Oc2ccc(NC(=O)Nc3ccc(C(F)(F)F)cc3)cc2C(=O)N([C@H](C)CO)C[C@@H]1C	-16%

Additional compounds.
SMILES	VDR inh
CC1=C(C(=O)Nc2ccccc2)C(C(C)C)n2nc(SCc3ccccc3C)nc2N1 (centres undefined)	12%
COc1ccc(CNc2nc3nc(C)cc(C)n3n2)cc1	-9%
N#CC1=C(C2CC2)CC(c2ccccc2)C(C#N)=C1N (centres undefined)	-4%
COc1ccc(/C=N/NC(=O)CCCOc2ccc(Cl)cc2Cl)cc1	7%
Cc1ccc(C(=O)Nc2nnc(C3=COCCO3)o2)cc1C	-4%
Cc1csc(NC(=O)C(F)(F)F)n1	-14%
COc1cc(C)nc(N2CCCC(C(=O)NC3CCC(C)CC3)C2)n1 (centres undefined)	-12%
CCc1cc(=O)oc2c(C)c(OC(C)C(=O)NC3CC(C)(C)NC(C)(C)C3)ccc12 (centres undefined)	-11%
CC(=O)Nc1ccc(OC(=O)N2CCCC2)cc1	-5%
CC(=O)OCCc1c(C)nc2nc[nH]n2c1=O	-1%
CC(=O)OC1C(=O)[C@@]2(C)C(O)CC3OC[C@]3(OC(C)=O)C2C(OC(=O)c2ccccc2)[C@]2(O)CC(OC(=O)C(O)C(NC(=O)c3ccccc3)c3ccccc3)C(C)=C1C2(C)C (some centres undefined)	10%
Cc1ccc(C)c(N2C(=O)CS/C2=N\NC(=O)c2ccccc2Cl)c1	-8%
O=C(NC1CCCC1)C(c1ccc(F)cc1)N(Cc1ccccc1Cl)C(=O)CCl (centres undefined)	-24%
Cc1ccccc1NC(=O)COC(=O)/C=C/c1cccc(C(F)(F)F)c1	-18%
Cc1cccc(NC(=S)NCC(C)CSc2ccc(Cl)cc2)c1 (centres undefined)	2%
CC(=O)Nc1nnc(SCC(=O)NC2CCCC2)s1	5%
COC(=O)c1sc(SC)nc1N	-4%
Cc1ccc2nc(/C(C#N)=C/c3ccc(-c4cccc([N+](=O)[O-])c4)o3)[nH]c2c1	-3%
CCCCCC(=O)N(c1ccc(OCC)cc1)S(=O)(=O)c1ccc2c(c1)n(C)c(=O)n2C	3%
O=C(Nc1ccccc1)C1CC(O)CN1S(=O)(=O)c1ccc([N+](=O)[O-])cc1 (centres undefined)	-24%
NS(=O)(=O)c1ccc(Nc2nc(-c3ccc4ccccc4c3)cs2)cc1	5%
NC(=O)c1cc[n+](CC(=O)NC(=O)Nc2ccccc2)cc1	-2%
Cc1cc(NC(=O)CSc2nnc(C3COc4ccccc4O3)n2C)no1 (centres undefined)	11%
N#C/C(=C/c1cccc([N+](=O)[O-])c1)c1nnc2n1CCCCC2	?
Cc1ccc(N(C(=O)Cn2nnc(-c3ccccc3)n2)C(C(=O)NC2CCCCC2)c2ccccn2)cc1C (centres undefined)	-4%
O=C(c1ccncc1)N(c1ccc2oc3c(c2c1)CCCC3)S(=O)(=O)c1ccc(F)cc1	-17%
CC(C)Nc1nc(NC(C)C)nc(N(C#N)CCOc2ccc(Cl)cc2Cl)n1	2%
CCOC(CCNC(=O)c1cn(CCOC)c(=O)c2c1c1ccccc1n2C)OCC	-2%
Cc1cc(C)nc(N2CCCC(C(=O)NC(C)CCc3ccco3)C2)n1 (centres undefined)	-14%
COc1ccc(-c2nnc(SCC(=O)NCCC(C)C)nc2-c2ccc(OC)c(OC)c2)cc1OC	14%&11%
COc1ccc(S(=O)(=O)N2CCN(C(=O)c3ccco3)CC2)c(C)c1C	13%
CNc1ccc(Br)cc(C(=O)/C=C/c2cc(OC)ccc2OC)c1=O	?
Cc1nn(-c2ccc(N3CCCC3)nn2)c(C)c1CCC(=O)N1CCN(c2ccc(F)cc2)CC1	0%
N#Cc1nc(COc2ccc(F)cc2)oc1NCCN1CCOCC1	-3%
CCN(C(=O)COc1ncnc2ccc(Br)cc12)C1CCS(=O)(=O)C1 (centres undefined)	-5%
Cn1c(SCC(=O)N2CCCc3ccccc32)ncc(C(=O)Nc2ccc(Cl)cc2)c1=O	-7%
COc1ccc(NS(=O)(=O)c2ccc(NC(=O)c3ccccn3)cc2)cc1	-5%
CCOc1ccc(NC(=O)c2oc3ccccc3c2NC(=O)Cc2cccc(C)c2)cc1	-3%
Cc1ccc(NS(=O)(=O)c2ccc(-c3csc(C)n3)s2)c(C)c1	-1%
O=C(CN1N=C(c2ccc(Cl)cc2)CCC1=O)NCc1ccc(F)cc1	0%
CCCCOc1cccc(C(=O)N(Cc2ccc(Br)o2)C2CCS(=O)(=O)C2)c1 (centres undefined)	7%
Cc1ccccc1Nc1c(-c2ccccn2)nc2c(C)cccn12	18%
Cc1cc(C)c(Nc2nn3c(=O)c4cc5c(cc4nc3s2)OCO5)c(C)c1	?
Cc1cc(/C=N/Nc2nc(N3CCOCC3)nc(N3CCOCC3)n2)c(C)n1-c1ccccc1	23%
Cc1ccc(CN(C#N)c2nc(C)cc(C)n2)cc1	2%

Some of the entries so far, with bars between the fields.
SMILES | VDR inh
Cc1ccccc1Nc1c(-c2ccccn2)nc2c(C)cccn12 | 18%
CNc1ccc(Br)cc(C(=O)/C=C/c2cc(OC)ccc2OC)c1=O | ?
CCCCOc1cccc(C(=O)N(Cc2ccc(Br)o2)C2CCS(=O)(=O)C2)c1 (centres undefined) | 7%
N#Cc1nc(COc2ccc(F)cc2)oc1NCCN1CCOCC1 | -3%

(more compounds)
SMILES	VDR inh
Cc1cc(NC(=O)CSCC(=O)N2CCN(c3cccc(C)c3C)CC2)no1	0%
COc1ccc(C(=O)N[C@H]2COC(C)(C)O[C@H]2c2ccccc2)cc1	-3%
COc1ccc(CCNC(=O)C2CCN(c3nc4ccccc4nc3C(F)(F)F)CC2)cc1OC	6%
C=CCOc1nc(-c2ccccc2Cl)nc2ccccc12	13%
Cc1cccc(N2C(=S)N=C(Nc3c(C)cccc3C)C23CCOC(C)(C)C3)c1 (centres undefined)	4%
CCC(Cn1nnc2ccccc2c1=O)NC(=O)Nc1cccc(C)c1C (centres undefined)	2%
c1cc(CSc2nnc(-c3ccc4c(c3)OCO4)o2)ccn1	-17%
O=S(=O)(c1ccc2nnn(O)c2c1)N1CCCCC1	-18%
C/C(=N\Nc1cc(N2CCOCC2)ncn1)c1ccccc1	-11%
CC(C)(C)CC(=O)N[C@@H](Cc1ccccc1)c1nc2ccccc2[nH]1	6%
O=C(NC1CCCCC1)C(c1ccc(F)cc1)N(C(=O)Cc1ccsc1)c1ccc(F)cc1 (centres undefined)	4%
O=C(Nc1cc(-c2nc3cc(Cl)ccc3o2)ccc1Cl)c1cc2ccccc2o1	9%
CC(C)CC(C(=O)O)N1C(=O)[C@@H]2[C@H](C1=O)[C@@H]1C[C@H]2C(Br)C1Br (some centres undefined)	2%
